# GLA inh pH 4.5: qHTS Assay for Inhibitors of Human alpha-Galactosidase at pH 4.5; purified enzyme, 4-MU-alpha-Gal fluorescence, pH 4.5; activity change, negative = inhibition, % at 105 µM; 230,000 tested, under 10 active; AID 1467, 2008; inconclusive = small, poorly fitted or top-dose-only inhibition, or a rising curve; inactive = flat fitted curve, though single readings scatter; no compound was filed as active;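 also: 0% = full activity with enzyme and -100% = basal without enzyme; dose as in the result columns while the protocol names 77 µM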
# Rango dissoc inh: qHTS Assay for Inhibitors of RanGTP induced Rango (Ran-regulated importin-beta cargo) - Importin beta complex dissociation. Snurportin-1 (Homo sapiens) + GTP-binding nuclear protein Ran (Homo sapiens) + Importin …. Biochemical FRET Rango-importin beta, RanGTP-induced dissociation. Potency, µM (doses to about 46.1 µM), without a hit: at the top dose activity change, negative = inhibition. actives 0.071% (n = 340,000); active means falling FRET ratio curve, often poorly fitted, with flat reads before Ran was added; inconclusive means other falling curves, or compound fluorescence or quenching; inactive means flat or rising ratio curve;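 also: potency is read from the fitted curve at half-maximal effect; % of control where 0% means no effect; nearly all actives have a fitted effect of over 45% in size; -100% = wells without RanGTP and RCC1; the record marks most hits as doubtful in a second field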
#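 Two FRET readings bracket the reaction: one 5 min after compound meets Rango–importin beta, another 45 min after RanGTP-RCC1 (0.6 uM Ran, 0.2 uM RCC1, 2 mM GTP) is added. Only the second defines inhibition.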
# Rango complex inh: qHTS Assay for Inhibitors of Rango (Ran-regulated importin-beta cargo) - Importin beta complex formation. Potency, µM (series often up to 92.2 µM), inactives show top-dose inhibition of complex formation. Rango CFP/YFP FRET sensor + importin beta, 45 min. actives 0.031% (n = 340,000). Importin subunit beta-1 (Homo sapiens), Q14974. AID 540263, 2011; active = rising FRET ratio curve, often small or poorly fitted; inconclusive = mostly compound fluorescence or quenching in the first reads; inactive = flat curves in all reads;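 also: potency is read from the fitted curve at half-maximal effect; 0% = DMSO wells and 100% = buffer wells lacking importin beta; nearly all actives have a fitted effect of over 15% in size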
# Target sequence (Q14974 whole entry, looked up): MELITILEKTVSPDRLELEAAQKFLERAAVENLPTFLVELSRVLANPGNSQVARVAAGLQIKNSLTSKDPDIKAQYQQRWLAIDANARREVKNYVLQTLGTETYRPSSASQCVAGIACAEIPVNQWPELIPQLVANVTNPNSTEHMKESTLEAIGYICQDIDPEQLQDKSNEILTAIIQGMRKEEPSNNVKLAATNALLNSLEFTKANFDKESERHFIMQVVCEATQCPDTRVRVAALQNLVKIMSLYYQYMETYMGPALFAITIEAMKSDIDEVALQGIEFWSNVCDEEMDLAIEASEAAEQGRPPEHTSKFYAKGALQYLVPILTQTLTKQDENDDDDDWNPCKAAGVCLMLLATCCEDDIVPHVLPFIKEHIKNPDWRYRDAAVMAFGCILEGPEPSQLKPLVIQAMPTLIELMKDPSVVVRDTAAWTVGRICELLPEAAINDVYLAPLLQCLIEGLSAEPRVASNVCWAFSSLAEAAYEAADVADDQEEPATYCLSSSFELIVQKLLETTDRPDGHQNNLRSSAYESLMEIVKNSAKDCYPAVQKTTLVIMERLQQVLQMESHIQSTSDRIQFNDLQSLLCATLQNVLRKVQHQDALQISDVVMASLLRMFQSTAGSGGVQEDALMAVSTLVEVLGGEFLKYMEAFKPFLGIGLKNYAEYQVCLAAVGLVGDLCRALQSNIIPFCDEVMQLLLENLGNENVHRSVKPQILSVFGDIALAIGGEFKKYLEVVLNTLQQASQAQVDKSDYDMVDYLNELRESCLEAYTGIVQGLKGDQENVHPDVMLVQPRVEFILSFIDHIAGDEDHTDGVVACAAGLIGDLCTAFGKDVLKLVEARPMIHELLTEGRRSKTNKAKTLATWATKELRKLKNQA
#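 FRET biosensor Rango (snurportin 1 IBB between N-terminal EYFP and C-terminal Cerulean), 50 nM in PBS/1 mM DTT/0.02% Tween-20/0.1% BSA, preincubated 5 min RT with compound; 0.125 microM importin beta added, 45 min RT, CFP/YFP FRET ratio read.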
# miR-21 reporter: qHTS Assay for Modulators of miRNAs and/orActivators of miR-21; Potency, µM (titrated, usually from 38.3 µM), for inactives: at the top dose reporter change, positive = more light; 340,000 tested, under 10 active; HeLa miR-21 FLuc reporter, luciferase, 48 h; active = well fitted rising curve with a large enough effect; inconclusive = small, poorly fitted or top-dose-only effect; inactive = no such curve, though single readings can be large or run the other way;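 also: % of control where 0% means no effect; miR-21 action dims this reporter so a rising signal means less miR-21 action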
#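 Using DMEM plus 10% FBS, HeLa miR-21-FLuc cells are incubated with test compounds (final up to about 40uM) for 48 hours; firefly luciferase signal is then imaged following reagent-mediated lysis.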
# Numbers without * were called inactive; ? = inconclusive; . = no result given; & = joins results of further samples.
SMILES,GLA inh pH 4.5,Rango dissoc inh,Rango complex inh,miR-21 reporter
O=C(NNC(=O)C1CC=CCC1C(=O)O)c1cccs1 (stereo not given),4,-2%,2.0%,-59%
N/C(Cc1ccc([N+](=O)[O-])cc1)=N\OC(=O)c1cccc(Br)c1,-3,-5%,-4.0%,-5%
CC(=O)N1CCN(C23CC4CC(CC(C4)C2)C3)CC1,.,0%,-1.3%,-1%
O=C(c1ccc([N+](=O)[O-])o1)N1CCc2ccccc2C1,-20,2%,0.6%,19%
CC(C)c1nc2sc3c(c2c(=O)o1)CCCC3,2,-7%,0.1%,2%
CCOC(=O)C(NC(C)=O)(Nc1ccc(S(=O)(=O)Nc2ncccn2)cc1)C(F)(F)F (stereo not given),-5,?,0.6%,-1%
CCOC(=O)C(C)n1cnc2sc(C)c(C)c2c1=O (stereo not given),7,-1%,-0.2%,-15%
COc1cccc(C(=O)NNC2=C(C(=O)C(F)(F)F)CCC2)c1,6,-11%,0.0%,-21%
CC(C)(C)[C@@H]1C=C(C(N)=O)O[C@H](OCCCCO)C1,.,-4%,0.5%,.
O=C(CSc1nnc(SCc2ccccc2)s1)N/N=C/C=C\c1ccco1,-4,-7%,-0.9%,-8%
Cn1nccc1C(=O)Nc1ccc2c(c1)OCO2,.,3%,9.8%,-55%
Cc1ccc(NC(=O)CN(C)C(=O)CSc2nnnn2C)cc1,-1,-13%,-1.9%,1%
COCCn1c(C)nnc1SCC(=O)Nc1ccccc1[N+](=O)[O-],-1,-2%,3.7%,0%
Cn1c(=O)c2[nH]c(NN=Cc3ccccc3)nc2n(C)c1=O,.,-9%,0.6%,.
Cc1oc2ccc(O)cc2c1C(=O)c1ccc([N+](=O)[O-])cc1,-4,0%,0.4%,-4%
COc1ccc(-n2cc(CNCCc3nc(C)cc(C)n3)c(-c3ccccc3Cl)n2)cc1,5,-5%,-2.8%,15%
CN(C(=O)CSc1nc2[nH]ncc2c(=O)[nH]1)c1ccccc1,.,3%,-3.2%,.
COc1cccc(C(=O)/C=C/Nc2ccc(S(=O)(=O)Nc3nc(C)cc(C)n3)cc2)c1,-4,?,?,-24%
COc1ccccc1/C=C\C=N\n1c(C2CCCCC2)n[nH]c1=S,-12,-8%,0.4%,-7%
Cc1c(S(=O)(=O)c2ccccn2)c(N)n(Cc2ccccc2Cl)c1C,3,-20%,?,-7%
CC(C)(C)c1ccc(OCCN2CCCC2)cc1,-10,-11%,-2.1%,-5%
CCOC(=O)C1CCN(S(=O)(=O)c2ccc3c(c2)N(C(C)=O)CC(C)S3)CC1 (stereo not given),.,2%,0.1%,19%
CCOC(=O)c1c(C)nc2c(c1-c1ccc(OC)cc1)C(=O)CC(C)(C)C2,-24,3%,4.3%,11%
CSc1nc2nc3c(c(=O)n2[nH]1)CCC3,3,10%,-1.5%,-1%
Cc1ccc(Cl)c(OCC(=O)OC(C)C(=O)NC2CC2)c1 (stereo not given),.,13%,-0.4%,.
COc1ccc(S(=O)(=O)N2CCOCC2)cc1NC(=O)CN1CCCC1,-7,32%,7.7%,-5%
O=C(COC(=O)c1cccc(S(=O)(=O)N2CCN(c3ccccc3)CC2)c1)NCC1CCCO1 (stereo not given),-23,-1%,7.7%,-3%
O=C(NCc1ccccc1)c1ccc(CS(=O)Cc2ccc(Cl)cc2)o1 (stereo not given),.,10%,2.0%,3%
COc1ccc2c(c1)c(=O)c(Br)c(C)n2Cc1ccccc1,1,15%,0.1%,-15%
COc1ccc(OCC(=O)Nc2ccccc2O)cc1,-8,1%,1.9%,-57%
Oc1c(C(c2cccs2)N2CCN(c3ccccc3)CC2)sc2ncnn12 (stereo not given),5,-24%,-3.0%,1%
O=S(=O)(c1ccccc1)c1cnn(-c2ccccc2)c1-c1ccc(Cl)cc1,3,-10%,-0.9%,13%
CC1=C(C(=O)Nc2cccnc2)C(c2cccnc2)n2nc(-c3cccs3)nc2N1 (stereo not given),-19,14%,1.1%,0%
O=C(Nc1ccccc1)C(=O)Nc1ccc2c(c1)N(C(=O)C1CC1)CCC2,.,-8%,1.4%,.
CCCC(=O)Nc1ccc(C(=O)Nc2cc(C(F)(F)F)ccc2Cl)cc1,6,-2%,1.5%,6%
Cc1ccc(C2CC(c3ccccc3C)n3nc(N)nc3N2)cc1 (stereo not given),-7,3%,-0.1%,-6%
Cc1ccc(C(=O)O)cc1NC(=S)NC(=O)c1ccc([N+](=O)[O-])cc1Cl,0,32%,-2.4%,12%
Cc1noc(C)c1CN(C(=S)NC(C)C)c1ccccc1,-2,-3%,-1.2%,0%
CCCN(CCC)CCCNC(=O)c1cc2cc3ccc(OC)cc3nc2o1,?,8%,0.5%,-12%
Cc1cccc(C(=O)NNC(=O)c2ccco2)c1,-2,0%,-0.9%,-19%
C[C@@]12C(=O)Nc3cc(F)ccc3C(=O)N1[C@H]1c3cc(Br)ccc3OC[C@@H]1[C@@H]2c1ccccc1,.,-18%,?,.
CCc1noc(C)c1C(=O)N(C)CC(=O)Nc1ccc(F)c(F)c1F,.,-20%,1.7%,.
FC(F)(F)COc1ccc(-c2nnc(SCc3ccccc3)o2)cn1,3,19%,7.5%,-4%
O=C(NC1CCCc2ccccc21)c1ccc2c(c1)OCO2 (stereo not given),2,0%,-0.3%,-13%
CCc1ccc(C(=O)NC(=S)NCc2cccnc2)cc1,.,10%,-1.5%,-5%
CCNC(=O)CSc1nc(-c2ccccc2)cs1,5,-15%,-2.2%,-53%
COC(=O)c1sccc1NC(=O)CC1C(=O)NCCN1C(=O)Nc1ccc(OCc2ccccc2)cc1 (stereo not given),-6,8%,3.2%,-13%
CCOC(=O)C1CCN(C(=O)Nc2ccc(OC(F)(F)F)cc2)CC1,-16,0%,-3.7%,-16%
CN(c1ccccc1)S(=O)(=O)c1nnc(NC(=O)COc2ccccc2)s1,.,-2%,1.1%,-2%&-21%
CN(C)CCCNc1oc(-c2cccc(Cl)c2)nc1C#N,-3,-4%,-0.2%,-25%
COc1ccc([C@H]2[C@H](C(=O)OC(C)(C)C)N3N=Cc4ccccc4C3C23C(=O)c2ccccc2C3=O)c(OC)c1 (stereo not given in full),-13,1%,-1.2%,-3%
CCCS(=O)(=O)N1CCC(C(=O)NCCN(CC)c2ccccc2)CC1,3,9%,-3.1%,-5%
Cc1nn(-c2ccccc2)c(N2CCCC2)c1/C=N/NC(=S)Nc1ccccc1F,-1,?,?,-27%
COc1ccc(Cl)cc1NC(=O)COC(=O)c1ccc(Br)o1,.,-2%,2.6%,.
O=C(Cc1ccccc1)N/N=C/c1ccccc1Cl,-1,-4%,0.9%,-26%
Cc1ccc(/C=N/n2c(-c3cccs3)n[nH]c2=S)cc1,-3,-22%,1.4%,-1%
COc1ccc(NC(=O)N[C@@H](CCSC)C(=O)O)cc1OC,-7,-5%,-3.4%,-2%
COc1ccc(/C=N/N=C2/SCC(=O)N2Cc2ccccc2)cc1,-6,-19%,4.5%,-64%
O=C(c1ccccc1F)c1cc2c(cc1[N+](=O)[O-])OCCO2,8,1%,0.4%,-8%
N#CCNC(=O)c1cccn1-c1ncc(C(F)(F)F)cc1Cl,10,0%,0.2%,-1%

# Continuation.
SMILES,GLA inh pH 4.5,Rango dissoc inh,Rango complex inh,miR-21 reporter
O=C(Nc1ccc(Cl)cc1F)c1ccc2c(c1)C(=O)N(Cc1ccncc1)C2=O,.,1%,-0.3%,.
Cc1ccccc1C(=O)N1CCN(c2ccc(NC(=S)NC(=O)c3cccs3)cc2)CC1,4,13%,-0.1%,?
CS(=O)(=O)N(CC(=O)O)c1ccc2c(c1)OCO2,-1,-1%,-0.5%,-3%
O=C(COc1ccc2ccccc2c1Br)N1CCCC1,.,14%,-3.4%,-56%
COc1ccccc1C(=O)NCCC(=O)N1CCCCCCC1,.,6%,-0.8%,.
COC(=O)C1=C(C)NC(=O)CC1c1cc2c(cc1Br)OCO2 (stereo not given),-6,4%,-0.3%,-5%
O=C(NCC(c1cccs1)N1CCOCC1)c1cc(Cl)ccc1[N+](=O)[O-] (stereo not given),.,-20%,0.8%,.
COc1ccc(C(=O)Nc2cccnc2)cc1S(=O)(=O)N1CCOCC1,-2,1%,-3.3%,0%
Cc1ccccc1Oc1ccc(Oc2ccccc2C)nn1,6,19%,3.7%,-44%
CC(C)COC(=O)/C(C#N)=C/c1c[nH]c2ccccc12,8,?,?,-49%
COc1ccc(CN2CCC(CO)(Cc3ccccc3C(F)(F)F)CC2)c(F)c1,-16,-4%,3.2%,-1%
CN(C(=O)CSc1nnc(N)s1)c1c(N)n(Cc2ccccc2)c(=O)[nH]c1=O,-6,0%,?,-9%
CN(C(=O)CS(=O)(=O)c1cn(CC(=O)N2CCOCC2)c2ccccc12)c1ccccc1,-2,1%,1.3%,-1%
C/C(=N/NC(N)=S)c1ccccc1[N+](=O)[O-],-18,0%,1.2%,6%
O=c1c2ccccc2c2c(O)nc(-c3ccccc3)n2n1Cc1ccccc1,-2,32%,0.9%,-2%
COc1cc(C(=O)NNC(=O)CCOc2cccc(Br)c2)cc(OC)c1OC,.,22%,0.6%,.
c1ccc2[nH]c(NCCN3CCOCC3)nc2c1,4,2%,0.2%,-17%
CCCCNC(=O)COC(=O)c1c2c(nc3ccccc13)CCC2,.,-7%,-1.5%,7%
COc1cc(-c2cc(C(=O)Nc3ccc(S(=O)(=O)Nc4ncccn4)cc3)c3ccccc3n2)cc(OC)c1OC,-6,23%,3.2%,8%
COc1cccc(C(=O)Nc2ccc3nc(N4CCN(c5ncccn5)CC4)cc(C)c3c2)c1OC,-1,.,.,?
COC(=O)c1ccccc1S(=O)(=O)N1CCC(NC(=O)c2ccccc2)CC1,.,-5%,-1.3%,11%
CC(O)CNc1nc2sc3c(c2c(=O)n1CCc1ccccc1)CCCCC3 (stereo not given),-14,-9%,0.9%,-21%
O=[N+]([O-])c1ccc(S(=O)(=O)c2cccc(C(F)(F)F)c2)nc1,.,-25%,?,.
CC(CCc1ccccc1)NC(=O)C1CCN(S(=O)(=O)c2cnc[nH]2)CC1 (stereo not given),-4,-5%,0.9%,-7%
O=C(c1ccc([N+](=O)[O-])cc1)n1nc(-c2ccccc2)nc1NCc1ccccc1,-4,-5%,-4.7%,-56%
COC(=O)Cc1csc(N)n1,5&9,-5%&-8%,-1.6%&2.4%,-11%&0%
COc1ccccc1N=Cc1nc(-c2ccccc2)oc1OC(C)=O,3,-17%,?,-9%
O=C1C(Nc2ccccc2)=CC(c2ccc(O)cc2)N1c1ccccc1 (stereo not given),-2,?,?,-29%
CCOC(=O)c1c(-c2cccc([N+](=O)[O-])c2)cn2ccccc12,0,-16%,-1.4%,-1%
O=C(NCc1ccccc1)c1ccc(NC(=O)c2ccccc2F)cc1,.,15%,-0.2%,-16%

# Screening results as filed in PubChem BioAssay.

# These rows are one share of the data; rates above refer to the full screens.
